# StopGo FLuc: lowers the firefly signal of an FMDV 2A StopGo reporter; HEK cells with a luciferase reporter of 2A StopGo recoding; Potency, µM (doses to about 57.5 µM), for inactives: top-dose signal change, negative = less light; 0.23% of 120,000 active; active = well fitted falling curve with a large enough effect; inconclusive = small, poorly fitted or top-dose-only effect; inactive = no such curve, though single readings can be large or run the other way; further: nearly all actives have a fitted effect of over 60% in size; overnight with compound
# 2A Renilla: FMDV 2A StopGo reporter, Renilla signal; Potency, µM (top dose mostly 57.5 µM), without a hit: top-dose signal change, negative = less light; 0.32% of 120,000 active; HEK cells with a luciferase reporter of 2A StopGo recoding; active means well fitted falling curve with a large enough effect; inconclusive means small, poorly fitted or top-dose-only effect; inactive means no such curve, though single readings can be large or run the other way; further: nearly all actives have a fitted effect of over 55% in size; overnight with compound
# Numbers without * were called inactive; ? = inconclusive; & = joins results of further samples; [ ] = dose if it differs, or a comment. On the % scale 0 is the no-effect control and ±100 the full control effect; potency means the concentration at half of the fitted maximal effect. A portion of the library; count on the stated rates, not on these rows.
SMILES,StopGo FLuc,2A Renilla
COc1ccc(C2CC(=O)c3cc(-c4nc(-c5cccc([N+](=O)[O-])c5)cs4)c(=O)n(-c4ccccc4C)c3C2)cc1 (stereo not given),-12.4%,-12.1%
COc1ccc(C)cc1NC(=O)C1CCC(CNS(=O)(=O)c2ccc3c(c2)CCCC(=O)N3)CC1 (stereo not given),?,?
COc1ccc(CNC(=O)C(C)Sc2nc(-c3ccccc3)cc(C(F)(F)F)n2)cc1 (stereo not given),-14.6%,4.6%
CCOc1cc2sc(N3CCC(C(=O)Nc4ccccc4C(=O)OC)CC3)nc2cc1Br,23.0%,2.9%
CCNC(=O)CSc1nnc(-c2ccncc2)n1CC(F)(F)F,-6.1%,6.8%
CCc1ccc(NC(=O)c2cc3c([nH]c2=O)CC(C)(C)CC3=O)cc1,75.0%[activator],8.0%
O=C(Cn1cnc2cc(F)ccc2c1=O)N(C1CC1)C1CCS(=O)(=O)C1 (stereo not given),-3.4%,-11.6%
O=C(O)c1ccc(CNC2CCCCC2)cc1,0.0%,35.2%
N#CC1(C(=O)Nc2cccc(I)c2)CCCC1,33.6%[activator],20.3%
COC(=O)[C@@H](NC(=O)Nc1cccc(C)c1C)C(C)C,-14.2%,-20.7%
CCN(CC)C(=O)c1sc2nc(C(C)(C)C)nc(C)c2c1C,5.1%,35.9%[activator]
Cc1cccc(OCC(=O)Nc2cccc(-c3nc4ccccc4o3)c2)c1C,42.9%[activator],-3.0%
CC(=O)Nc1ccc(NC(=O)c2csc(NC3CC3)n2)cc1,73.7%[activator],-10.5%
Cc1cccc(NC(=O)N2CCC(CCNS(=O)(=O)c3ccc(C(C)(C)C)cc3)CC2)c1,-0.3%,57.7%[activator]
Cc1nc(SCCOc2ccccc2F)[nH]c(=O)c1Cc1ccccc1,20.5%,-3.9%
CCOc1ccc(Cn2c(CNS(=O)(=O)c3ccc(CC)cc3)nc3cccnc32)cc1,-7.3%,156.8%[activator]
COc1cc(C2c3c(-c4ccccc4O)n[nH]c3C(=O)N2CCO)ccc1OCCC(C)C (stereo not given),-11.3%,-3.6%
Cc1ccc(S(=O)(=O)c2cn(CC(=O)Nc3ccccc3)c3cc4c(cc3c2=O)OCO4)cc1,16.7%,-8.8%
CCOc1ccccc1NC(=O)N1CCCn2nc(C)cc21,-10.4%,-9.7%
Cc1ccc(NC(=O)COC(=O)CCc2nc3ccccc3s2)c(C)c1,31.9%[activator],20.5%

# Compound profiles (already shown). Order of screens: StopGo FLuc, 2A Renilla
# COc1ccc(C2CC(=O)c3cc(-c4nc(-c5cccc([N+](=O)[O-])c5)cs4)c(=O)n(-c4ccccc4C)c3C2)cc1 (stereo not given) across the screens: -12.4%, -12.1%
# CC(=O)Nc1ccc(NC(=O)c2csc(NC3CC3)n2)cc1 across the screens: 73.7%[activator], -10.5%
# O=C(Cn1cnc2cc(F)ccc2c1=O)N(C1CC1)C1CCS(=O)(=O)C1 (stereo not given) across the screens: -3.4%, -11.6%
# CCN(CC)C(=O)c1sc2nc(C(C)(C)C)nc(C)c2c1C across the screens: 5.1%, 35.9%[activator]

# Further structures.
SMILES,StopGo FLuc,2A Renilla
CCOc1ccc(CCNC(=O)c2ccc(-c3nc(CSc4ccc(C)cc4)c(C)o3)cc2)cc1,-11.0%,-7.5%
O=C1CCCCC1OC(=O)C12CC3CC(CC(Cl)(C3)C1)C2 (stereo not given),0.0%,6.5%
Cc1ccc(-n2ncc3c(=O)n(-c4ccc(F)c(Cl)c4)c(C)nc32)cc1,-10.4%,-10.1%
COC(=O)c1cc2ccccc2cc1OC(=O)Cc1cc(C(C)=O)ccc1OC,0.0%,-10.0%[1.06 µM]
CCN(CC)C(=O)Oc1ccc2c(=O)c(-c3ccccc3)c(C)oc2c1,129.1%[activator],-19.4%
CCN(Cc1cccs1)C(=O)CC1CC2CCC1C2 (stereo not given),18.1%,41.5%[activator]
COCc1oc2ccc(NS(=O)(=O)c3ccc(C)cc3)cc2c1C(=O)OC,7.7%,1.5%
Cc1ccc(S(=O)(=O)CC(=O)Nc2nc3c(C)cc(C)cc3s2)cc1,-11.9%,-8.8%
Cc1cc(=O)oc2cc(OCC(=O)NCCCN3CCCC3=O)ccc12,8.5%,-3.3%
Cc1cccc(NC(=O)c2cc(-c3ccncc3)nc3ccccc23)c1,0.0%,-4.7%
CC(=O)Oc1ccc(C2(c3ccc(OC(C)=O)cc3)Oc3ccccc3NC2=O)cc1,-21.5%,-2.3%
CN(Cc1ccsc1)C(=O)/C=C/c1cccc2ccccc12,86.3%[activator],226.7%[activator]
COc1ccc(S(=O)(=O)NC(C)C)cc1-n1cnnn1,-7.1%,55.7%[activator]
COc1cc2[nH]c(C(=O)Nc3ccc4c(c3)OCCO4)cc2c(OC)c1OC,?,?
CC(C)(C)c1ccc(/C=N/OCC(=O)Nc2ccc(SC(F)F)cc2)cc1,0.0%,0.0%
Cc1ccc(NC(=O)c2ccc3ccccc3n2)cc1Cl,220.4%[activator],5.2%
CCOc1ccc(CNC(=O)c2ccc(NC(=O)c3nsc4ccccc34)cc2)cc1,9.3%,-10.0%
CC(C)N(CCNC(=O)c1nn(Cc2ccccc2)c(=O)c2ccccc12)C(C)C,-2.2%,0.0%
Cc1cccc2cc(CN(CC(C)C)C(=O)c3ccccc3)c(=O)[nH]c12,-3.9%,5.1%
Cc1cccc(C(=O)Oc2ccc(C)c(C)c2)c1,0.2%,3.8%
CCN(CC)C(=S)SC(c1ccc2ccccc2c1[N+](=O)[O-])S(=O)(=O)c1ccc(C)cc1 (stereo not given),?,?
CCC(C)NC(=O)Cn1ccc2cc(S(=O)(=O)N3CCCCCC3)ccc21 (stereo not given),9.4%,61.3%[activator]
O=C(NC1CCCC1)C1CC=CCC1c1nc2ccccc2s1 (stereo not given),14.8%,43.2%[activator]
COc1ccccc1NC(=O)Cn1c(C)cc(C)c(C#N)c1=O,-15.0%,-7.8%
CCOC(=O)c1[nH]c2c(c1Cc1ccccc1C)C(=O)CC(c1ccccc1)C2 (stereo not given),-17.9%,1.7%
COc1ccc(-n2c(=O)c3ccccc3n(Cc3cccc(C)c3)c2=O)cc1,-10.8%,0.2%
Cc1ccc(/C=C/c2cc(C(=O)O)c3ccccc3n2)c(C)c1,112.5%[activator],18.2%
CCOC(=O)C1=C(Nc2ccccc2)O/C(=C/c2ccc(F)cc2)C1=O,0.0%,7.1%
O=C(Nc1ccc(F)c(C(F)(F)F)c1)c1ccccc1-c1ccccc1,22.1%,21.2%
Cc1ccc(-n2cccc2C=O)cc1Cl,7.0%,1.4%

# Some of the entries so far, as labelled records.
> CCOC(=O)c1[nH]c2c(c1Cc1ccccc1C)C(=O)CC(c1ccccc1)C2 (stereo not given)
  StopGo FLuc: -17.9%; 2A Renilla: 1.7%
> COc1ccc(-n2c(=O)c3ccccc3n(Cc3cccc(C)c3)c2=O)cc1
  StopGo FLuc: -10.8%; 2A Renilla: 0.2%
> Cc1ccc(/C=C/c2cc(C(=O)O)c3ccccc3n2)c(C)c1
  StopGo FLuc: 112.5%[activator]; 2A Renilla: 18.2%
> CCOC(=O)C1=C(Nc2ccccc2)O/C(=C/c2ccc(F)cc2)C1=O
  StopGo FLuc: 0.0%; 2A Renilla: 7.1%

# Ordered by count of non-hydrogen atoms (low to high): 3 of the compounds above
SMILES,StopGo FLuc,2A Renilla
Cc1ccc(/C=C/c2cc(C(=O)O)c3ccccc3n2)c(C)c1,112.5%[activator],18.2%
CCOC(=O)C1=C(Nc2ccccc2)O/C(=C/c2ccc(F)cc2)C1=O,0.0%,7.1%
COc1ccc(-n2c(=O)c3ccccc3n(Cc3cccc(C)c3)c2=O)cc1,-10.8%,0.2%

# Next part:
SMILES,StopGo FLuc,2A Renilla
COc1ccc(C)cc1N(C)C(=O)c1c(C)oc2ncnc(N3CCOCC3)c12,-13.8%,-5.7%
COCCN(CCOC)Cc1cccc2ccccc12,20.3%,18.3%
CCC(C)NC(=O)CN1C(=O)c2cccnc2Oc2ccc(C)cc21 (stereo not given),-11.3%,-9.5%
O=Cc1cccn1-c1cccc(Br)c1,-8.2%,-8.0%
COC(=O)CCC1CCCCC12OCCO2 (stereo not given),3.9%,4.4%
CCOCCCn1c(=N)c(C(=O)NCC2CCCO2)cc2c(=O)n3cccc(C)c3nc21 (stereo not given),-26.7%,-11.7%
CCc1ccc(CNC(=O)CN2C(=O)CCn3nc(-c4cn(C)c5ccccc45)cc32)cc1,6.3%,-4.1%
CC(=O)c1ccc(NC(=O)C2CCN(c3nnc(C)c4c(C)n(-c5ccccc5)nc34)CC2)cc1,-16.7%,-13.5%
OC(Cc1c[nH]c2ccccc12)(c1ccccc1)c1ccccc1,?,?
Cc1ccsc1/C=N/N(Cc1ccccc1)c1ccccc1,10.2%,3.5%
C#CCNC(=O)c1cccc(C(N)=O)c1,6.7%,-2.1%
CCN(CC)C(=O)c1cccc(NC(=O)Cc2c[nH]c3ccccc23)c1,0.0%,97.2%[activator]
CC(=O)Nc1cccc(C(C)NC(=O)NC(C)c2cccc(F)c2)c1 (stereo not given),5.6%,2.3%
CC(Oc1cccc(Oc2ccccc2)c1)C(=O)c1ccc(F)c(F)c1 (stereo not given),-11.9%,-4.9%
Cc1cccc(NC(=O)CN2C(=O)CCc3ccccc32)c1C,24.8%,13.9%
O=C(Nc1ccccc1I)c1cc2cc(Br)ccc2oc1=O,23.6%,-12.9%
COc1ccc(CNC(=O)c2ccc(CSc3nc4ccncc4n3Cc3ccccc3F)cc2)cc1,60.5%[activator],18.6%
O=S(=O)(CCNCc1ccc(Cl)c(Cl)c1)Cc1ccccc1,4.2%,14.3%
CCC(=O)Nc1c(-c2cc(=O)oc3ccc(CC)cc23)oc2ccccc12,-14.2%,-3.2%
CC(C)C(NC(N)=O)C(=O)O (stereo not given),6.5%,-7.8%
O=C(Nc1ccc(NC(=O)C2CC2)cc1)C1CCCCC1,23.5%,12.0%
Cc1ccc(C(C)C)c(OCC(=O)Nc2nc3c(s2)CCCC3)c1,1.9%,?
CCCC(=O)OCc1cc(=O)oc2cc(O)ccc12,16.8%,18.0%
CCn1cc2nc(SCC(=O)N3CCCC3)n(Cc3ccc(OC)cc3)c(=O)c2n1,5.5%,21.5%
CCOc1ccc(NC(=O)CSC2=Nc3ccccc3C3=NC(Cc4ccccc4)C(=O)N23)cc1 (stereo not given),18.1%,0.0%
COc1ccc(OC)c(-n2c(=O)c(C#N)cc3c(=O)n4cccc(C)c4nc32)c1,-0.9%,-0.1%
COC(=O)c1ccc(OC)c(NC(=O)N2CCc3[nH]cnc3C2c2cccc(F)c2F)c1 (stereo not given),47.2%[activator],72.4%[activator]
Cc1cc(=O)oc2cc(OCC(=O)NC(=O)NC3CCCC3)ccc12,-7.8%,-9.7%
Cc1ccc(NC(=O)CSCc2cc(C)no2)cc1,28.7%,-11.1%
CCc1ccc(N2C(=O)CS(=O)(=O)C23C(=O)N(Cc2ccccc2C)c2ccccc23)cc1 (stereo not given),-3.4%,-4.4%
CN1/C(=C\C(=O)CN2CCN(C/C=C/c3ccccc3)CC2)C(C)(C)c2ccccc21,?,2.0%[1.06 µM]
O=C(O)Cc1ccc(-c2ccccc2)cc1,0.0%[11.5 µM],-4.2%
COc1cccc(/C=C/c2nc(C#N)c(N3CCCCCC3)o2)c1,26.1%&13.0%,-13.1%&39.1%
O=C(Nc1cccc2ccccc12)C1CCCCC1,15.9%,2.2%
COc1ccccc1C(=O)/C=C/c1cccc(OC)c1OC(F)F,?,?
Cc1ccccc1C(=O)Nc1ccc(NC(=O)c2ccco2)cc1O,137.3%[activator],14.1%
CCCCCn1c(CCC(=O)O)nc2c1c(=O)[nH]c(=O)n2CCCC,12.6%,2.5%
Cc1ccc(CNC(=O)C(=O)NCC(c2ccco2)S(=O)(=O)c2cccs2)cc1 (stereo not given),?,2.6%
